RanGTP-Impb inh – inhibitors of RanGTP-importin-beta interaction, primary screen, biochemical, FRET, CFP-Ran, YFP-importin-beta, homogeneous; cell-free CFP-Ran/YFP-importin-beta FRET ratio; inhibition, % (test concentration not listed); 300,000 compounds, 1.1% hits;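 active means most replicates above 15%; inconclusive means exactly half above 15%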;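 further: 0% = DMSO wells and 100% = Ran loaded with GDP instead of GTP; wells of about 40 µL received 100 nL stock; the first replicate is given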
LANA-H2A inh – blocks KSHV LANA binding to histone H2A/H2B; Q9QR71; cell-free LANA-H2A/H2B peptide, fluorescence polarization; inhibition, % (test concentration not listed); 320,000 compounds, 0.6% hits; AID 2629; in the data active means inhibition mostly above about 10%, no sharp cut-off; inactive means mostly below about 6.7%;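 further: stock transfer was 7.5 nL into about 10 µL; 0% = median of vehicle wells and 100% = median of positive control wells; one replicate is shown; the record names a cut of 25% in any replicate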
T cruzi inh – blocks replication of Trypanosoma cruzi; T. cruzi beta-gal in NIH3T3, luminescence, 90 h; inhibition, % (no concentration beside the values); 300,000 compounds, 1.4% hits; AID 1885;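 active means mean inhibition across valid replicates above about 55%, limit read from the data; inconclusive means mean below that limit but half or more replicates reach it; inactive means mean below it, under half of replicates reach it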;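 further: signal also drops with host cell toxicity which is not excluded here; 0% = plate median of DMSO wells and 100% = zero luminescence signal; higher percent means less beta-gal luminescence so fewer parasites; stock transfer was 50 nL into about 50 µL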
MLL AF4-AF9 inh – MLL-AF4/AF9 protein interaction inhibition | AID 651704 | inhibition, % at 10 µM | AlphaScreen, biotin-AF4 peptide binding to FLAG-AF9 | 350,000 compounds, 0.47% hits;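 active means every replicate reaching a set inhibition limit, whatever the replicate mean, cut at about 25% in these data; inconclusive means mean inhibition reaches that limit but some replicates miss it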;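 further: 0% = plate neutral control median and 100% = total signal loss; the record names both 10 and 1 µM as test concentration; the first replicate is given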
Target sequence (P42568 whole entry, looked up): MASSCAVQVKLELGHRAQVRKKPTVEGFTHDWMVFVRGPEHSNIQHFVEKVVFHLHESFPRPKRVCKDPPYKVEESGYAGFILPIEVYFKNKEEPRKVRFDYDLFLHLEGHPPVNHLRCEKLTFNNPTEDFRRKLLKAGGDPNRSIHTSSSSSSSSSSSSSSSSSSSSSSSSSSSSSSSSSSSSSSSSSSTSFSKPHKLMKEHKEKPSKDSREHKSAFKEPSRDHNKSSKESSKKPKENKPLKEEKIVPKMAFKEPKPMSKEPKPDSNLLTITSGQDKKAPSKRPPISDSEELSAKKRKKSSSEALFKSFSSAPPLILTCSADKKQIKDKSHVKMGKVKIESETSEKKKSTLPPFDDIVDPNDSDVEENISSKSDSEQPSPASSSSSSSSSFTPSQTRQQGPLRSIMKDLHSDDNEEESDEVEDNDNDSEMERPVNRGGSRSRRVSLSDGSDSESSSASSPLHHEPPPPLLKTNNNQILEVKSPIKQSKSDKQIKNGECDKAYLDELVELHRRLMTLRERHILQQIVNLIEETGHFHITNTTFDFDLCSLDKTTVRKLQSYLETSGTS
A1 inh – inhibitors of the anti-apoptotic protein A1, read as caspase activation. caspase activation, % (concentration not given with the values). MEF A1-2A-BIM cells, Caspase-Glo 3/7 luminescence, 3 h; percent of clofoctol response, vehicle zero. AID 2462. 330,000 compounds, 0.066% hits;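 active means over half of replicate activation scores above 10%, or exactly half above 10 with the replicate mean above 10; inconclusive means replicate mean below 10 yet half the replicates above 10; inactive means over half of replicates below 10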;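 further: wells of about 30 µL received 50 nL stock; many hits fall short of the cut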
Calb FLC – C. albicans growth modulation with fluconazole; AID 1979; 300,000 compounds, 0.57% hits; C. albicans CaCi-2 (fluconazole-resistant clinical isolate) + fluconazole, Alamar Blue growth, 48 h; growth inhibition, % (test concentration not listed);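 active means most replicates above 75%; inconclusive means exactly half above 75%; inactive means most below 75%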;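 further: all wells also contain fluconazole at 8 µg/ml as a sub-toxic cotreatment; 0% = median of DMSO wells and 100% = median of geldanamycin control wells; wells of about 8 µL received 7.5 nL stock; the first replicate is given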
Beta apoptosis – beta cell apoptosis inhibition; INS-1E cytokine-induced death, ATP luminescence, 48 h; percent of positive-control rescue, neutral wells zero; protection from apoptosis, % (concentration not given with the values); 300,000 compounds, 0.8% hits; AID 435005;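 active means all replicates at 75% or more, or half of them and the mean; inconclusive means half reach 75% but not the mean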;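 further: 0% = cytokine-treated negative control wells and 100% = positive control rescue; higher means more ATP so stronger rescue from cytokine killing; wells of about 40 µL received 100 nL stock; the first replicate is given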
Vif TR-FRET – inhibitors of Vif binding to APOBEC3G peptide, primary screen, biochemical, TR-FRET, GST-Vif 1-94, biotin-A3G peptide, dose response retest (AID 1117319) | 260,000 compounds, 0.57% hits | inhibition, %, or IC50 in µM where a hit was titrated | TR-FRET GST-Vif / biotin-A3G peptide binding; higher % means a stronger effect; test concentration not given here; strong numbers were not always called active;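 active means above the screen mean plus three standard deviations and confirmed in dose response; inconclusive means results disagree or hit not tested in dose response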;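 further: Vif residues 1-94 fused to GST binding biotinylated APOBEC3G peptide 110-148; 0% = full assay without inhibitor and 100% = GST in place of GST-Vif; retest series ran down from 100 µM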
Starred values were filed as active, the others as inactive; ? = inconclusive; . = not tested or not shown.

A first look (two entries):
smiles	RanGTP-Impb inh	LANA-H2A inh	T cruzi inh	MLL AF4-AF9 inh	A1 inh	Calb FLC	Beta apoptosis	Vif TR-FRET
CC1(C)C(c2cccs2)=[N+]([O-])C2(CCCCC/C2=N\NC(N)=O)N1O (stereo not drawn)	1.7	-0.6	-25.1	.	0.2	8.1	-3.6	0.3%
C/C(=C\C(=S)Nc1ccccc1)Nc1ccc2ccccc2c1	3.7	0.9	13.6	2.4	0.1	12.0	30.0	?

This part in full, previewed entries included:
smiles	RanGTP-Impb inh	LANA-H2A inh	T cruzi inh	MLL AF4-AF9 inh	A1 inh	Calb FLC	Beta apoptosis	Vif TR-FRET
CC1(C)C(c2cccs2)=[N+]([O-])C2(CCCCC/C2=N\NC(N)=O)N1O (stereo not drawn)	1.7	-0.6	-25.1	.	0.2	8.1	-3.6	0.3%
C/C(=C\C(=S)Nc1ccccc1)Nc1ccc2ccccc2c1	3.7	0.9	13.6	2.4	0.1	12.0	30.0	?
COC(=O)NNC(=O)COc1cc(C)ccc1C	1.5	-13.1	-16.3	-26.2	0.6	24.0	-7.1	.
CCOc1ccc(Nc2nc(NCc3ccco3)nc(N)c2[N+](=O)[O-])cc1	-2.3	-3.3	-4.9	2.6	-0.4	-2.2	-1.5	-6.5%
Cc1nc(C)n(C(C)CC(=O)O)n1 (stereo not drawn)	-2.0	-1.3	-18.2	.	-0.4	-10.9	-2.0	?
COc1ccc(C2C(C(=O)c3ccco3)=C(O)C(=O)N2CCN2CCOCC2)c(OC)c1 (stereo not drawn)	-0.5	-2.5	-33.0	0.4	-0.1	14.1	-6.0	.
CC(C)c1ccc(CN2CC(C(=O)O)CC2=O)cc1 (stereo not drawn)	0.8	-0.7	-11.4	-2.7	-0.9	-2.2	-5.0	1.8%
CC(C)(C)c1ccc(/C([O-])=C(/C(=S)NCc2ccco2)[n+]2ccccc2)cc1	-4.3	2.2	0.5	.	0.2	-0.2	-4.6	?
Cc1nn(C(=O)/C(C#N)=C/N(C)C)c(C)c1C	-1.1	0.9	-4.0	-1.0	-0.3	3.2	0.7	.
COc1ccc(OC)c(S(=O)(=O)N2CCN(C(=O)c3cc(C4CC4)nn3-c3ccccc3)CC2)c1	.	1.7	.	0.3	0.2	.	0.7	.
CCCn1c(=O)c(C(=O)NCc2cccnc2)c(O)c2ccccc21	3.1	-1.8	5.3	.	0.4	-6.1	-0.7	-2.3%
Cc1[nH]c2ccc(F)cc2c(=O)c1SC(F)(F)C(F)F	0.6	3.9	-14.2	.	-0.6	-7.6	-1.2	-18.3%
O=CN1CCN(C(=O)CC(c2ccccc2)c2cc(Br)ccc2O)CC1 (stereo not drawn)	1.3	3.3	1.9	0.1	0.7	0.5	.	.
Cc1ccc(NC(=O)CN(C)C(=O)CSc2nc3ccccc3o2)cc1	5.2	0.8	-14.4	.	-0.1	2.0	-1.5	-1.0%
COc1ccc(C(=O)OCCN2CCOCC2)cc1OC	.	-2.4	.	.	0.2	.	0.4	10.3%
COc1ccc(N2CC(C(=O)NCc3ccco3)CC2=O)cc1 (stereo not drawn)	?	-7.3	6.0	1.3	-0.4	2.0	-1.8	.
Cc1ccc(S(=O)(=O)Nc2cccc(C(=O)NC3CCN(Cc4ccccc4)CC3)c2)cc1F	2.5	-1.4	56.3*	1.7	-0.7	-0.9	.	5.1%
O=C(O)COc1ccc(/C=N/NC(=O)Cc2ccc(Cl)cc2)cc1	1.6	-4.0	-2.7	-6.3	-0.1	-3.6	-6.2	.
Cn1nc(NC(=O)C(F)(F)F)c2ncc(-c3ccc(Cl)cc3)nc21	-0.3	-0.3	2.5	-3.5	-2.1	-17.3	-4.6	-4.3%
Oc1ccc(N=Cc2ccc(O)c(O)c2)cc1	-0.7	-1.6	-17.2	.	0.3	31.3	.	0.99µM*
COc1cccc(NC(=O)n2nc(N)cc2-c2ccc(Cl)cc2)c1	2.7	0.1	9.4	-1.7	0.4	-2.3	-5.7	-0.3%
Cc1ccc2c(c1)N(CC(=O)N1CCCCCC1)C(=O)CO2	-1.2	1.5	2.4	.	-0.5	3.9	-5.4	2.6%
CC1CCC2(CC1)NC(=O)N(Cc1nc(-c3ccccc3)no1)C2=O (stereo not drawn)	-6.4	-3.6	13.1	.	-1.6	0.2	-3.2	-5.9%
CCC(=O)Nn1c(C)nnc1C	5.7	0.5	-0.8	.	0.7	0.5	-7.2	9.7%
Cc1c(NC(=O)C(C)OC(=O)c2cc(Cl)ccc2O)c(=O)n(-c2ccccc2)n1C (stereo not drawn)	2.2	1.9	-13.1	-0.6	0.1	-1.7	-8.7	.
COc1ccc(C(=S)N2CCN(c3cccc(Cl)c3)CC2)c(OC)c1	10.5	-1.3	-2.9	6.6	0.6	5.9	14.9	2.3%
COc1ccccc1Nc1nc(N)nc(CN2CCOCC2)n1	0.0	2.9	-9.4	0.6	-0.2	-9.8	-8.3	4.0%
Cc1cc(C(=O)O)cc(S(=O)(=O)NNC(=O)c2cccs2)c1C	-1.2	1.8	-8.7	-2.3	1.0	-3.6	-6.3	5.2%
COc1ccc(CCNCC(=O)Nc2c(C)cc(C)cc2C)cc1OC	-1.4	-3.1	13.8	3.6	1.0	-0.7	-3.3	9.8%
Cc1ccc(S(=O)(=O)N2CCOCC2)cc1NC(=O)CNCc1ccccn1	2.1	-1.7	4.4	-3.9	-0.4	6.1	2.0	-3.5%

Arranged by value in MLL AF4-AF9 inh (largest number first): three of the compounds above
mol,RanGTP-Impb inh,LANA-H2A inh,MLL AF4-AF9 inh,Vif TR-FRET
Cc1c(NC(=O)C(C)OC(=O)c2cc(Cl)ccc2O)c(=O)n(-c2ccccc2)n1C (stereo not drawn),2.2,1.9,-0.6,.
COc1cccc(NC(=O)n2nc(N)cc2-c2ccc(Cl)cc2)c1,2.7,0.1,-1.7,-0.3%
Cc1ccc(S(=O)(=O)N2CCOCC2)cc1NC(=O)CNCc1ccccn1,2.1,-1.7,-3.9,-3.5%

(continued)
smiles	RanGTP-Impb inh	LANA-H2A inh	T cruzi inh	MLL AF4-AF9 inh	A1 inh	Calb FLC	Beta apoptosis	Vif TR-FRET
COCCN(C(=O)COC(=O)C1=COCCO1)c1c(N)n(Cc2ccccc2)c(=O)[nH]c1=O	-1.1	-1.9	6.8	-0.8	0.7	4.1	-1.7	.
NC(=O)c1cccc(S(=O)(=O)N2CC(c3ccccc3)CC2=O)c1 (stereo not drawn)	3.7	0.4	-17.0	-2.1	0.4	1.3	-1.8	-0.3%
CC(C)Nc1nc2cccnc2s1	-1.3	-2.3	-11.2	-2.0	0.1	-5.8	-8.3	-0.9%
CCC(c1nnnn1Cc1ccccc1)N1CCN(c2ccc(OC)cc2)CC1 (stereo not drawn)	-0.1	-2.0	19.8	14.0	1.3	9.0	3.8	8.2%
CCC(C)[C@H](NC(=O)N1CCn2c1nc1ccccc12)C(=O)NCC1CCCO1 (stereo partly drawn)	5.1	-2.9	6.6	-0.7	0.4	.	-0.9	.
Cc1occc1C(=O)Nc1nn[nH]n1	7.8	-2.1	-19.0	.	0.0	13.2	-1.9	-1.7%
O=C(O)c1ccc2c(c1Sc1ccccc1)C(=O)c1ccccc1C2=O	2.2	-1.4	-4.1	2.5	-1.6	-1.2	2.2	?
CC(C)[C@H](NC(=O)c1ccccc1)C(=O)NC1=NCCS1	.	6.1	.	1.1	-0.3	.	-3.2	-8.5%
COc1ccc(CC(=O)NCCc2cnc[nH]2)cc1	-1.7	-5.1	5.0	1.3	-0.4	-5.7	-15.3	8.6%
COc1ccc(C(C)C)cc1S(=O)(=O)N1CC(C)OC(C)C1 (stereo not drawn)	1.9	-1.8	-8.9	0.3	0.2	15.4	-2.8	-2.4%

Later entries
Every second line gives: RanGTP-Impb inh	LANA-H2A inh	T cruzi inh	MLL AF4-AF9 inh	A1 inh	Calb FLC	Beta apoptosis	Vif TR-FRET
- Cn1c(C(=O)O)c(CC(=O)N2CCC(Cc3ccccc3)CC2)c2ccccc21
→ 0.5	-3.4	-5.3	-3.9	0.5	9.6	4.3	-2.5%
- OC(CNC1CCCCCC1)COc1cccc2ccccc12 (stereo not drawn)
→ 1.3	-4.0	15.1	3.6	0.4	-6.6	-1.1	-6.6%
- COc1ccc(NC(=O)CCNC(=O)N2CC(=O)Nc3ccccc32)c(OC)c1
→ -1.9	5.5	-11.5	-2.7	1.5	2.2	-9.4	.
- COc1ccc(C(=O)OCC(=O)Nc2ccc(F)c(F)c2)cc1OC
→ 4.0	0.9	-13.6	.	-0.7	-1.0	-5.9	-4.2%
- CC(NC(N)=O)C(=O)NCC(=O)OCc1ccccc1 (stereo not drawn)
→ -2.1	0.1	-10.4	-2.2	-1.3	12.2	-0.1	.
- COc1cc(/C=N/NC(=O)CN(Cc2ccccc2)S(=O)(=O)c2ccc3c(c2)OCCO3)ccc1O
→ ?	1.0	3.9	3.5	-0.2	-1.7	-6.5	.
- Cc1ccc(C2=NOC(=O)/C2=C\C=C\c2ccccc2)cc1
→ 4.2	8.2	?	-2.3	.	11.1	.	?
- CN(C(=O)COC(=O)c1ccc(S(=O)(=O)N2CCCC2)cc1)c1ccccc1
→ -8.6	5.8	-29.2	-0.5	0.9	-9.0	-14.3	0.0%
- O=C(NCc1ccco1)c1nn2cccnc2c1Cl
→ ?	-5.0	-4.3	11.9	-0.3	10.9	3.4	16.6%
- O=C(CCN1CCN(Cc2ccccc2)CC1)Nc1cccc(Br)c1
→ -2.4	1.1	23.1	1.4	0.6	-17.8	-7.7	-4.3%
- CSCC[C@H](NC(=O)COc1ccc(Cl)cc1Cl)c1nc2ccccc2[nH]1
→ 3.3	2.3	-17.2	.	0.7	-1.2	10.0	.
- O=S(=O)(c1ccc(Br)cc1)N1CCOC12CCCCC2
→ 2.0	2.9	-1.9	-15.7	1.7	-2.8	-7.1	?
- COc1ccccc1N(CC(=O)NC1CCCCC1)C(=O)CNC(=O)c1cccs1
→ 0.7	-14.1	11.2	-3.6	0.0	23.1	2.1	.
- CC1CCCCC12NC(=O)N(Cn1nnc3ccccc3c1=O)C2=O (stereo not drawn)
→ 0.8	-1.4	2.2	.	0.2	-9.3	2.2	-8.2%
- Cc1cc(C)cc(Nc2nc3c([nH]2)c(=O)n(C)c(=O)n3C)c1
→ -2.3	2.2	27.9	-0.5	0.2	?	3.0	17.6%
- CC(C)c1nc(SCC(=O)NC2CCCC2)c2c(=O)n(C)c(=O)n(C)c2n1
→ 1.7	2.2	3.2	0.1	0.4	9.1	2.4	19.5%
- CN(C(=O)c1ccncc1)C1CC(C)(C)N(O)C(C)(C)C1
→ -0.4	-1.2	-7.9	.	-0.2	2.3	-1.3	21.5%
- Cn1c(SCCC(=O)O)nnc1-c1ccncc1
→ -0.9	1.8	-16.3	4.1	-0.1	5.0	2.6	-3.5%

Screening results (PubChem)
